H5N1 CPE – antiviral screen in MDCK cells, H5N1 avian flu. AID 740. cytopathic effect, luminescence, 72 h; active compounds read high; no value below 0 was filed and about half of the inactive calls have no number; reference of the scale not given here. 96,000 compounds, 0.07% hits. inhibition, % at 50 µM; in the data active = inhibition above about 25%
* hit, by the source's call; i = inactive.

SMILES	H5N1 CPE
COc1cc2oc3ccccc3c2cc1N(CC(=O)N1CCCCC1)S(=O)(=O)c1ccc(C)cc1	2.4
CCOc1ccc2[nH]c(=O)c(C(c3nnnn3CCOC)N3CCOCC3)cc2c1 (configuration not stated)	0.9
O=C(CC(=O)Nc1ccccn1)Nc1ccccn1	1.6
CCC(=O)Nc1ccc(NC(=O)c2cc3ccccc3o2)cc1	i
CCCS(=O)(=O)N1CCC(C(=O)NCCCN2CCC(Cc3ccccc3)CC2)CC1	0.2
CCNC(=O)NC(=O)C(C)Sc1ccc2c(c1)OCCO2 (configuration not stated)	1.5
COc1ccc(OC)c(S(=O)(=O)Nc2cccc(F)c2)c1	1.3
COc1ccccc1CC(=O)NCCc1ccc(S(N)(=O)=O)cc1	2.2
CS(=O)(=O)N1CCN(c2nnc(-c3ccccc3)c3ccccc23)CC1	0.9
Cc1cc(NC(=O)CSc2ccccc2)no1	i
Cc1ccc(C)c(NC(=S)N(CCc2nc3cc(C)c(C)cc3[nH]2)Cc2cccnc2)c1	0.4
Cc1cccc(NS(=O)(=O)c2cc(C(=O)OCC(=O)Nc3cc(C)on3)ccc2C)c1	1.2
Cc1cc(C)cc(N2C(=O)CC(n3ccnc3)C2=O)c1 (configuration not stated)	0.7
O=C(O)CC1SC(=Nc2cccc(C(F)(F)F)c2)NC1=O (configuration not stated)	i
Cc1nc(-c2ccc(O)c(O)c2)cs1	1.6
CCCCCC1CC(CC(=O)O)C(=O)O1 (configuration not stated)	i
CC(=O)C1=C(C)OC(N)=C(C#N)C1c1ccncc1 (configuration not stated)	i
Cc1c(C(=O)OCC(=O)N2CC(C)OC(C)C2)oc2ccc(Br)cc12 (configuration not stated)	0.2
COC(=O)c1nonc1NCn1nnc2ccccc21	i
N#CC1=C(N)N(c2ccccc2)C2=C(C(=O)CCC2)C1c1ccsc1 (configuration not stated)	i
O=C(CCn1c(=O)oc2ccccc21)N1CCc2ccccc21	i
C=CCc1c(C)nc(SC)nc1Nc1ccc(C(C)=O)cc1	0.3
COc1ccc(CCNC(=O)C2CC(c3ccc([N+](=O)[O-])cc3)=NO2)cc1 (configuration not stated)	2.4
CCOC(=O)CSc1nnc(CNc2nc(-c3ccccc3)cs2)n1C	0.6
COc1cccc(C(=O)Nc2cc(NC(=O)c3ccco3)ccc2OC)c1	1.6
SMILES	H5N1 CPE
O=C(CCSc1ccc(Cl)cc1)c1cccs1	i
CCOc1ccc(C2C(C(=O)c3ccco3)=C(O)C(=O)N2Cc2cccnc2)cc1 (configuration not stated)	0.7
CCCCCCC(=O)c1c(C)[nH]c(C(=O)OCC)c1C	i
CCCCOc1ccc(NC2=NC3(CCCCC3)N=C(N)N2)cc1	i
COc1ccc(C2NC(=O)c3sc4nc(C)c(C(C)=O)c(-c5ccc(Cl)cc5)c4c3N2)cc1 (configuration not stated)	0.5
COc1cccc(C(=O)Nc2ccc(NC(=O)C3CC3)cn2)c1	i
CCN1C=C(Cc2ccc(OC)cc2)C2=C(C1)C(c1ccc(OC)cc1)C(C#N)=C(N)O2 (configuration not stated)	i
O=C(Nc1ccc(F)cc1)c1cnc(-c2ccccc2)nc1-c1ccccc1	i
COC(=O)c1ccccc1NC(=O)CC#N	0.5
Cc1oc(-c2ccc(Cl)cc2)nc1CN1CCCC(C(=O)NCCCN2CCCC2=O)C1 (configuration not stated)	i
CCOC(=O)N1CCC(NC(=O)CCc2nc(-c3ccccc3F)no2)CC1	i
CCOC(=O)c1sc(NC(=O)CSc2nnc(C)s2)c(C(=O)OCC)c1C	2.1
CC(C)CCNC(=O)C(c1ccco1)N(Cc1ccccc1)C(=O)c1snc(C(N)=O)c1N (configuration not stated)	i
Cc1ccccc1C(=O)NNC(=O)C1CCCN(c2ncccn2)C1 (configuration not stated)	i
COc1ccc(CCN(C)Cc2ccncc2)cc1OC	0.8
O=C(C1CC1)N1CCN=C1SCc1ccc(F)cc1	i
Cc1nnc(N2C(=O)c3oc4ccccc4c(=O)c3C2c2ccco2)s1 (configuration not stated)	0.7
Cn1c(SCC(N)=O)nnc1C1CCN(S(=O)(=O)c2ccccc2C(F)(F)F)CC1	i
Cc1nnc(NC(=O)Cn2c(=O)sc3ccccc32)s1	0.7
C/C=C/c1ccc(OCCCCn2cncn2)c(OC)c1	i
Cc1cc(C)c2nc(N3CCC(C(=O)NCCCN4CCCCC4)CC3)sc2c1	i
CCC(Sc1nnnn1C)C(=O)Nc1ccc(C(C)=O)cc1 (configuration not stated)	i
O=[N+]1C2=C(CCCC2)N([O-])C12CCCC2	i
COc1ccc(OCC(=O)Nc2cccc3ncccc23)cc1	0.6
COC(=O)C(Cc1ccc(O)cc1)NC(=O)c1ccccc1OC (configuration not stated)	0.1
SMILES	H5N1 CPE
NC(=O)c1ccccc1NC(=O)/C=C/c1c(Cl)cccc1Cl	i
CCCN1CCN(C(=O)Cn2cccc2C(=O)c2ccccc2)CC1	i
COc1ccc(CCNC(=O)c2c(-c3ccccc3Cl)noc2C)cc1	i
CCn1cc(C2=NC(C)CO2)c2ccccc21 (configuration not stated)	0.6
CCN1c2ccccc2-c2nc3ccccc3n2C1c1ccncc1 (configuration not stated)	1.2
NC(CSC12CC3CC(CC(C3)C1)C2)C(=O)O (configuration not stated)	0.1
CCOC(=O)C1CCCN(C(=O)c2cn(CC(C)C)c(=O)c3cc(OC)c(OC)cc23)C1 (configuration not stated)	i
CCc1ccccc1NC(=S)NCc1ccc2c(c1)OCO2	0.8
Cc1cccc(NC(=S)/N=C(\N)Nc2nc(C)c3ccc(C)cc3n2)c1	i
CCOC(=O)Cc1c(C)nc2c(-c3ccccc3OC)c(C)nn2c1C	0.5
c1ccc2c(c1)oc1c(NCCCn3ccnc3)ncnc12	2.5
c1ccc(-c2nnc3n2CCCC3)cc1	i
O=C(NCc1ccccc1)c1ccc(Oc2ccc(C(=O)NCc3ccccc3)cc2)cc1	i
COc1ccc(OC)c(C2=NOC(C(=O)N3CCN(c4ccccc4)CC3)C2)c1 (configuration not stated)	1.7
CSc1cccc(NC(=O)C(C)NS(=O)(=O)c2ccc(F)cc2)c1 (configuration not stated)	1.1
CCCn1c(SCC(=O)NC(=O)Nc2ccc(C)cc2C)n[nH]c1=O	0.1
O=S(=O)(/C=C/c1ccccc1)Nc1ccc2c(c1)OCO2	2.1
COCCNC(=O)Cn1cc2c(n1)CCCCC2	i
COc1ccc(S(=O)(=O)Cc2ccc(C(=O)N3CCN(c4cccc(C)c4)C(C)C3)o2)cc1 (configuration not stated)	1.1
CC1=C/C(=C/N(C)c2ccccc2)C(=O)S1	i
O=S(=O)(/N=C(/Sc1ccccc1)c1ccccc1)c1ccccc1	3.1
CCC(=O)Nc1ccc2oc(-c3cccc(C)c3)nc2c1	i
CCOC(=O)c1ccc(NC(=O)Nc2ccc(OC)c(OC)c2)cc1	i
O=C(NCC1CCCO1)C1CCC(N2C(=O)c3ccccc3C2=O)CC1 (configuration not stated)	0.8
COC(=O)c1ccc(CS(=O)(=O)c2ccc(C)cc2)cc1	0.3

A different layout for 6 compounds above.
Molecule | H5N1 CPE
Cc1cccc(NC(=S)/N=C(\N)Nc2nc(C)c3ccc(C)cc3n2)c1 | i
CCOC(=O)Cc1c(C)nc2c(-c3ccccc3OC)c(C)nn2c1C | 0.5
c1ccc2c(c1)oc1c(NCCCn3ccnc3)ncnc12 | 2.5
c1ccc(-c2nnc3n2CCCC3)cc1 | i
O=C(NCc1ccccc1)c1ccc(Oc2ccc(C(=O)NCc3ccccc3)cc2)cc1 | i
COc1ccc(OC)c(C2=NOC(C(=O)N3CCN(c4ccccc4)CC3)C2)c1 (configuration not stated) | 1.7

Further structures follow.
SMILES	H5N1 CPE
CCOC(=O)C1(c2nc(N)cs2)COC(=O)C1 (configuration not stated)	i
COC(=O)c1ccc(NC(=O)CN2CCN(c3cccc(Cl)c3)CC2)cc1	0.4
Cc1cccc(C(C)Nc2ccc([N+](=O)[O-])cn2)c1 (configuration not stated)	0.1
O=C(COc1ccc(Cl)cc1Cl)N1CCCC1	0.9
CSc1nnc(Cc2cc(=O)[nH]c(=O)[nH]2)n1-c1cc(C)ccc1C	0.5
CC(=O)Nc1cc(S(=O)(=O)Nc2cccc(C)c2)c(C)cc1C	1.1
Cc1cc(C)nc(N2CCC(C(=O)NCc3cccs3)CC2)n1	0.8
O=C(c1cc(S(=O)(=O)N2CCOCC2)c(Cl)cc1Cl)N1CCCCC1	1.8
CCc1nn(C(C)C(=O)NCCc2ccc(OC)c(OC)c2)c(=O)c2cc3occc3n12 (configuration not stated)	2.3
CC1Cc2ccccc2N1C(=O)CSc1nc2c(c(=O)n(C)c(=O)n2C)n1Cc1ccccc1 (configuration not stated)	i
c1ccc2c(Cn3nnc4ccccc43)cccc2c1	1.0
CCOC(=O)CNC(=O)CSc1nnc(-c2ccccc2)n1Cc1ccco1	0.3
Fc1ccc(CNc2nc3ccccc3n3nnnc23)cc1	0.8
CCOC(=O)CN(C(=O)c1ccccc1)c1ccccc1C	1.3
COCc1c(CN)cnc(C)c1N	0.4
CCOc1ccc(NC(=O)Nc2cccs2)cc1	0.4
Cc1ccc(NCc2ccccc2O)cc1	i
O=S(=O)(c1ccc(Oc2ccc(Br)cc2)cc1)N1CCOCC1	2.5
CCCCOC(=O)C1C2C=C[C@]3(CN(CCCOC)C(=O)[C@H]13)O2 (some centres not stated)	i
Cn1c(SCC(=O)N2CCCC2)nnc1-c1ccc(S(=O)(=O)N2CCCC2)cc1	1.4
CCOC(=O)C1CCN(CC(O)COc2ccc(C(C)(C)C)cc2)CC1 (configuration not stated)	i
Cc1ccc(-c2cn3cccnc3n2)cc1NC(=O)c1c(-c2ccccc2Cl)noc1C	5.4
Cn1c(SCc2ccccn2)nnc1-c1cnccn1	i
CC1CCCCN1C(=O)CSc1nc(-c2ccccc2)cc(=O)[nH]1 (configuration not stated)	0.8
CCOC(=O)N1CCN(C(=O)CCSc2ccc(C)cc2)CC1	i

A stretch of the results above, for reference:
SMILES	H5N1 CPE
COc1ccc(OC)c(S(=O)(=O)Nc2cccc(F)c2)c1	1.3
COc1ccccc1CC(=O)NCCc1ccc(S(N)(=O)=O)cc1	2.2
CS(=O)(=O)N1CCN(c2nnc(-c3ccccc3)c3ccccc23)CC1	0.9
Cc1cc(NC(=O)CSc2ccccc2)no1	i
Cc1ccc(C)c(NC(=S)N(CCc2nc3cc(C)c(C)cc3[nH]2)Cc2cccnc2)c1	0.4

Arranged by length of the SMILES (descending): some entries from above.
SMILES	H5N1 CPE
CC1Cc2ccccc2N1C(=O)CSc1nc2c(c(=O)n(C)c(=O)n2C)n1Cc1ccccc1 (configuration not stated)	i
COC(=O)c1ccc(NC(=O)CN2CCN(c3cccc(Cl)c3)CC2)cc1	0.4
CC(=O)Nc1cc(S(=O)(=O)Nc2cccc(C)c2)c(C)cc1C	1.1
CCOC(=O)CN(C(=O)c1ccccc1)c1ccccc1C	1.3
Cn1c(SCc2ccccn2)nnc1-c1cnccn1	i
O=C(COc1ccc(Cl)cc1Cl)N1CCCC1	0.9

(more compounds)
SMILES	H5N1 CPE
CCN(CC)CCCN1C(=O)C(O)=C(C(=O)c2ccco2)C1c1ccc(OC(C)C)cc1 (configuration not stated)	0.3
CCC1(C)Cc2nc3sc(C(=O)O)c(N)c3cc2CO1 (configuration not stated)	1.7
O=C1CC(c2ccccc2)CC(O)=C1C=NCc1ccc(Cl)c(Cl)c1 (configuration not stated)	i
CCOC(=O)N1CCN(c2cc(=O)n(-c3ccccc3Cl)c(=O)[nH]2)CC1	0.6
COC(=O)c1c(-c2cccc(C)c2)csc1N	i
CC(=O)Nc1cccc(-c2nnc(SCC(=O)n3c4c(c5ccccc53)CCCC4)n2C)c1	0.6
COc1cc(S(=O)(=O)N2CCOCC2)ccc1NC(=O)COC(=O)c1ccccn1	0.5
CCn1c(SCC(=O)C(C)(C)C)nnc1-c1ccccc1OC	0.0
COc1ccc(N(Cc2cc3ccc(C)cc3[nH]c2=O)C(C)=O)cc1	0.6
Cc1ccc(-c2nnn(CC(=O)N(Cc3cccs3)C(C(=O)NC3CCCCC3)c3ccco3)n2)o1 (configuration not stated)	i
O=C(CCC1N=C2c3ccccc3N=C(SCc3ccc(Cl)cc3)N2C1=O)NCc1ccco1 (configuration not stated)	3.2
O=C(Nc1ccc2c(c1)OCO2)c1cnn2c1NC(c1ccco1)CC2C(F)(F)F (configuration not stated)	i
CCC(=O)Nc1ccc(-c2nnc(SCC(=O)N3CCCCC3)n2C)cc1	i
Cc1cc(C(=O)COc2cccc3cccnc23)c(C)n1C	i
Cc1ccc2cccc(NC(=O)c3ccc(Br)o3)c2n1	0.3
COC(=O)C1=C(C)N(c2ccc(Cl)c(Cl)c2)C(=O)C1	3.8
C=CCOC(=O)C(C#N)c1nc2ccccc2nc1N1CCCC1 (configuration not stated)	2.3
N#Cc1c(-c2ccco2)nc(SCC(=O)Nc2ccc(S(N)(=O)=O)cc2)[nH]c1=O	0.7
CCOC(=O)Cc1csc(NC(=O)CS(=O)(=O)Cc2ccccc2)n1	i
CC1(C(=O)Nc2nnc(C(C)(C)C)s2)Cc2ccccc2C(=O)O1 (configuration not stated)	1.4
CC1CC(C)(C)Nc2ccc(OC(=O)c3ccco3)cc21 (configuration not stated)	2.7
CCOc1ccc(S(=O)(=O)n2cc(-c3ccc(F)cc3)c(N)n2)cc1	0.3
O=C(OC(C(=O)NCC1CCCO1)c1ccccn1)c1cccs1 (configuration not stated)	0.4
Cc1ccccc1NC(=S)NCCc1ccccn1	1.0
Cc1cccc(C)c1OCCSc1n[nH]c(N)n1	0.1
SMILES	H5N1 CPE
Clc1ccc(CSc2nncn2-c2ccccn2)cc1	3.6
CCn1c(CC(=O)Nc2cccc(OC)c2)nnc1SCC(=O)N1CCN(c2ccccc2)CC1	1.4
CCCC1c2ccc(C)n2CCN1C(=O)Nc1ccc(F)cc1 (configuration not stated)	i
COC(=O)CCN(C(=O)c1ccc(OC(C)=O)cc1)c1ccccn1	i
CC1CN(Cc2nc3c(c(=O)n(C)c(=O)n3C)n2Cc2ccccc2)CC(C)O1 (configuration not stated)	1.9
O=C(NCc1ccccn1)c1ccc(Br)s1	2.1

The list is partial (hit frequency here may not be typical).
